Screening results from PubChem.
A1 inh = inhibitors of the anti-apoptotic protein A1, read as caspase activation; MEF A1-2A-BIM cells, Caspase-Glo 3/7 luminescence, 3 h; percent of clofoctol response, vehicle zero; caspase activation, % (test concentration not listed); 330,000 tested, 0.066% active; AID 2462;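 active = over half of replicate activation scores above 10%, or exactly half above 10 with the replicate mean above 10; inconclusive = replicate mean below 10 yet half the replicates above 10; inactive = over half of replicates below 10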;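 also: wells of about 30 µL received 50 nL stock; many hits fall short of the cut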
B2AR ag = human beta-2 adrenergic receptor agonism by FAP. P07550. Am2.2-beta2AR cells, FAP receptor internalization, flow cytometry; reference of the scale not given here. response, % (concentration not given with the values). 340,000 tested, 0.43% active. AID 504454;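 active = response above a set limit, near 3 SD of response in nonfluorescent compounds, cut at about 42% in these data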;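 also: stock transfer was 100 nL into about 11 µL; a reference agonist was the positive control; negative values mostly stem from fluorescent compounds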
Target sequence (P07550 whole entry, looked up): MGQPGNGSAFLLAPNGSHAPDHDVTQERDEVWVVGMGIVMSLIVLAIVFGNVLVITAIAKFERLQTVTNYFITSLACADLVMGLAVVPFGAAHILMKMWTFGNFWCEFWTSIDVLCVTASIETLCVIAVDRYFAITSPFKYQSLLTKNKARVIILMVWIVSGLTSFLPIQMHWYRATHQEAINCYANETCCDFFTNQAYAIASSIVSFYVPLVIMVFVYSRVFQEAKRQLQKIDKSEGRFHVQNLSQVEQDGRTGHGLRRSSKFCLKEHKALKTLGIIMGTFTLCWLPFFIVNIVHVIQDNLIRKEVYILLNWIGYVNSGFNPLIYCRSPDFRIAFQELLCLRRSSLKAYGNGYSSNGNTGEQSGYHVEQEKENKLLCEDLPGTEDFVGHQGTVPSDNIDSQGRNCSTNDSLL
Ecoli growth = E. coli growth inhibition. Escherichia coli growth, OD600, 23 h; active compounds read low. OD600 absorbance (concentration not given with the values). 330,000 tested, 0.21% active. AID 1053175;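 active = OD600 absorbance below the run mean of sample wells minus 3.6 SD, in any replicate, cut at about 0.56 in these data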;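 also: stock transfer was 300 nL into about 60 µL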
LANA-H2A inh = blocks KSHV LANA binding to histone H2A/H2B; inhibition, % (concentration not given with the values); cell-free LANA-H2A/H2B peptide, fluorescence polarization; AID 2629; 320,000 tested, 0.6% active; in the data active = inhibition mostly above about 10%, no sharp cut-off; inactive = mostly below about 6.7%;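 also: stock transfer was 7.5 nL into about 10 µL; 0% = median of vehicle wells and 100% = median of positive control wells; one replicate is shown; the record names a cut of 25% in any replicate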
UCH37 inh = human UCH37 deubiquitinating enzyme inhibition | Q9Y5K5 | purified proteasome/UCH37, Ub-AMC cleavage fluorescence | inhibition, % (concentration not given with the values) | 330,000 tested, 0.33% active | AID 588478;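 active = mean of two replicates above 20%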;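 also: 0% = compound-free wells with enzyme and 100% = wells lacking proteasome; stock transfer was 100 nL into about 20 µL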
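Material: human UCH37 enzyme supplied as purified proteasome complex. Measure: % inhibition of Ub-AMC cleavage fluorescence. Medium: pH 7.4 Tris-HCl (50 mM) with ovalbumin, ATP-MgCl2, DTT. Times: 30 min preincubation with enzyme, 25 min cleavage at room temperature. Detection: AMC fluorescence intensity at 355/460 nm.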
HNF4A DNA FP = change in binding of human HNF4 alpha to DNA; 360,000 tested, 0.3% active; AID 1224865; HNF4a-FITC DNA binding, fluorescence polarization, 1 h; P41235; activity change, % at 10 µM; in the data active = activity change above about 30%, passing the limit was not always enough;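 also: controls were the assay level and a saturating level of protein; the project sought stronger binding though the title names inhibitors; some compounds called inactive have numbers as strong as hits; positive values seem to mean higher polarization but the record does not say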
Target sequence (P41235 whole entry, looked up): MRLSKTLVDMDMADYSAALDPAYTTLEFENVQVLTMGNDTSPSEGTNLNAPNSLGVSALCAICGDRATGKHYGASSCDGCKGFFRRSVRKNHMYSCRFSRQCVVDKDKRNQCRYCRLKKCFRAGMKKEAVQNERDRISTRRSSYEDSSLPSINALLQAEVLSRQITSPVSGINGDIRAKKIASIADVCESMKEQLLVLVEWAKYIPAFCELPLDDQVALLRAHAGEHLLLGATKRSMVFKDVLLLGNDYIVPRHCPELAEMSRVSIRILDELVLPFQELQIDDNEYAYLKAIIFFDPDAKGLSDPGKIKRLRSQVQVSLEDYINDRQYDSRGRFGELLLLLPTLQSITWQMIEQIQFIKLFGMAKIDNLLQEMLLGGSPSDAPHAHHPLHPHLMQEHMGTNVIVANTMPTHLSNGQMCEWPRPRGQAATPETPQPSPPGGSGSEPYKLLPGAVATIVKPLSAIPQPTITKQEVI
Vif A3G = inhibitors of Vif binding to APOBEC3G peptide, primary screen, biochemical, TR-FRET, GST-Vif 1-94, biotin-A3G peptide, dose response retest (AID 1117319) | TR-FRET GST-Vif / biotin-A3G peptide binding; higher % means a stronger effect; test concentration not given here; strong numbers were not always called active | one-dose inhibition, %; IC50 in µM for titrated hits | 260,000 tested, 0.57% active;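 active = above the screen mean plus three standard deviations and confirmed in dose response; inconclusive = results disagree or hit not tested in dose response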;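 also: Vif residues 1-94 fused to GST binding biotinylated APOBEC3G peptide 110-148; 0% = full assay without inhibitor and 100% = GST in place of GST-Vif; retest series ran down from 100 µM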
Numbers without * were called inactive; ? = inconclusive; / = not tested or not shown. The order is random; overall some 2.1% were active at least once.

SMILES	A1 inh	B2AR ag	Ecoli growth	LANA-H2A inh	UCH37 inh	HNF4A DNA FP	Vif A3G
COc1cccc(CC(NC(C)=O)C(=O)NC2CCN(C(=O)c3ccc(Cl)cc3)CC2)c1 (stereo unspecified)	/	-10	0.71	/	5.9	0.4	/
NNC(=O)CNC(=O)c1ccccc1F	0.8	-6	0.74	-0.1	1.1	3.4	?
CC(C)NS(=O)(=O)c1ccc(CCC(=O)N2CCC(C(N)=O)CC2)cc1	-0.6	5	0.69	3.9	0.8	0.3	-1%
CNC(=O)CSc1nc2[nH]ncc2c(=O)[nH]1	0.7	0	0.72	4.3	1.7	-1.2	/
CC1CCCN(C(=O)CN(c2ccccc2)S(=O)(=O)c2ccc(F)cc2)C1 (stereo unspecified)	-0.2	-5	0.67	0.8	5.8	0.2	-9%
Cc1ccc(NC(=O)C(C)OC(=O)c2ccc(Cl)nc2)cc1S(=O)(=O)N1CCOCC1 (stereo unspecified)	0.8	4	0.71	-2.5	-0.4	1.3	8%
O=C(Cn1cnc2sc(-c3ccccc3)cc2c1=O)NCc1ccccc1	/	-16	0.72	/	-3.2	0.9	12%
COC(=O)c1ccc(OC)c(OC2CCCC2)c1	-3.7	1	0.62	-7.2	0.4	13	-12%
CNC(=S)N1CCC(NC(=O)C23CC4CC(CC(C4)C2)C3)CC1	-0.2	-4	0.68	-3.4	-1.7	2.4	-1%
CCCCn1c(NC(=O)c2ccccc2)nc2ccccc21	-0.5	15	0.66	-2.4	3.1	-3.5	2%
O=S(=O)(c1cnc[nH]1)N1CCCCCC1	-0.1	-2	0.72	4.1	3.8	-0.2	22%
FC(F)Oc1ccc(/C=N/N2CCCCC2)c(OC(F)F)c1	-1.1	/	/	1.5	/	/	5%
O=C(O)c1ccc(NC(=S)NC2CCCCC2)cc1	-0.3	-5	0.73	0.4	1.7	-3.5	/
CCC(C)NC(=O)c1cn(CC)c2cc(N3CCN(C)CC3)c(F)cc2c1=O (stereo unspecified)	2.5	-7	0.075*	-2.0	-49	7.4	1%
COc1cc(C(=O)OCC(=O)NCc2ccco2)cc(OC)c1OC	0.1	-3	0.75	-3.5	2.6	-1.5	5%
O=C1CCN(CCc2ccccc2)CCN1CCOc1ccccc1	-1.2	2	0.64	-0.8	-1.1	-0.4	/
O=C(NCc1ccc2c(c1)OCO2)C1CCCN1S(=O)(=O)c1ccc(F)cc1 (stereo unspecified)	-0.7	-1	0.64	-0.6	1.4	-0.8	?
Cc1occc1-c1nnc(SCC(=O)N(C)c2ccccc2)o1	/	1	0.71	/	1.5	-3.1	0%
CC1CCCCN1S(=O)(=O)c1ccc(C(=O)Nc2ccccc2-c2nc3ccccc3[nH]2)cc1 (stereo unspecified)	-0.1	-3	0.67	1.4	-35	-1.3	?
COc1cccc(NC(=O)C(=O)c2cn(CC(=O)N3CCCC3)c3ccccc23)c1	0.5	8	0.69	-3.4	5.2	2.0	8%
CCC(=O)N1CCc2cc(Br)cc(S(=O)(=O)Nc3c(C)n(C)n(-c4ccccc4)c3=O)c21	-0.1	/	0.69	0.9	1.3	/	/
CC1Cc2nc(SCC(=O)NCC3CCCO3)n(-c3ccc(F)cc3)c(=O)c2S1 (stereo unspecified)	-1.4	-4	0.65	1.3	5.0	1.2	3%
CCn1c2ccccc2c2cc(NC(=O)c3cc(OC)c(OC)c(OC)c3)ccc21	0.2	26	0.68	-8.1	2.8	-0.8	-5%
COc1ccc2sc(N(CCCN(C)C)C(=O)c3ccc(C(=O)c4ccccc4)cc3)nc2c1	-1.3	15	0.65	-0.3	5.1	1.1	-1%
FC(F)(F)c1ccc(-c2csc(-c3ccno3)n2)cc1	-2.7	-14	0.65	-2.4	4.3	-3.0	26%
SMILES	A1 inh	B2AR ag	Ecoli growth	LANA-H2A inh	UCH37 inh	HNF4A DNA FP	Vif A3G
CCOC(=O)N1CCC(NC(=O)CCC(=O)N2CCOc3ccccc32)CC1	0.0	-4	0.7	8.1	-0.3	-1.0	-1%
Cc1nc(Nc2ccc(C(=O)O)cc2)nc(Nc2ccc(C(=O)O)cc2)c1[N+](=O)[O-]	0.1	-4	0.71	0.3	15	3.2	15%
CCOC(=O)C1CCN(CC(O)COCc2ccc3c(c2)OCO3)CC1 (stereo unspecified)	-0.5	2	0.68	-3.3	4.1	-0.3	/
O=C(NC(Nc1ccccn1)C(Cl)(Cl)Cl)c1ccccc1 (stereo unspecified)	0.8	6	0.67	-4.2	2.6	1.1	/
Oc1c(N=NC(=S)Nc2ccccc2F)c2ccccc2n1Cc1ccccc1F	-0.4	1	0.65	-0.9	9.1	3.4	15%
CCS(=O)(=O)N1CCCC(C(=O)N2CCc3ccccc3C2)C1 (stereo unspecified)	0.3	22	0.74	2.7	0.7	1.0	5%
O=c1[nH]nc(SCc2cc(Cl)ccc2Cl)c(=O)[nH]1	0.4	0	0.68	-1.1	5.4	-2.6	-3%
O=C(CCCC(=O)OCC(=O)c1ccc(Cl)cc1)NC1CCCCC1	0.6	-1	0.68	3.0	4.8	4.1	/
CCn1cc(S(=O)(=O)CC(=O)Nc2cc(C)on2)c2ccccc21	2.0	-2	0.72	-4.1	-1.5	1.9	13%
CCN(CC(=O)Nc1c(Cl)cccc1Cl)C(=O)C1CCN(c2ncnc3sc(C)c(C)c23)CC1	/	3	0.7	/	1.9	-0.5	-2%
COc1ccc(Cl)cc1C(=O)NC1=NCCS1	0.5	-8	0.66	2.7	0.4	0.7	-6%
COc1ccc(CC(=O)OCC(=O)Nc2ccc(Cl)cc2C)cc1	1.0	-5	0.6	2.7	-1.0	-3.3	-8%
CCC(=O)NC(=S)Nc1cccc(NC(=O)c2ccccc2Cl)c1	0.2	-15	0.77	-1.6	2.0	2.9	6%
O=C(OCC(=O)N1c2ccccc2Sc2ccccc21)c1ccc[n+]([O-])c1	1.1	-6	0.71	-3.8	3.1	3.1	0%
CC(=O)Nc1ccc(C(=S)NCc2ccco2)cc1	1.1	-4	0.7	-177	5.0	-4.4	6%
CC(C)NC(=O)NC(=O)COC(=O)C1(C)CC1(Cl)Cl (stereo unspecified)	0.9	-13	0.64	8.9	2.3	-2.6	6%
CNC(=S)N1CCC(NC(=O)C(Cc2ccc(OC)cc2)NC(C)=O)CC1 (stereo unspecified)	0.1	5	0.67	-1.5	3.0	4.9	/
CC(=O)N1CCN(c2ccc(NC(=O)c3cc(Cl)ccc3Cl)cc2)CC1	-0.8	1	0.71	-2.9	-0.2	-1.7	/
CCOc1ccccc1C(=O)NCc1ccco1	0.4	3	0.78	6.7	0.6	-2.1	20%
COC(=O)CCCC1=CC2=C(c3ccccc3)C(=O)C(C)(OC(=O)C3CCCC3)C(=O)C2=CN1Cc1ccc2c(c1)OCO2 (stereo unspecified)	-0.5	23	0.8	-2.9	3.9	-3.7	28%
Cc1nnc(NC(=O)CN2CCN(Cc3ccccc3Cl)CC2)s1	-0.2	-2	0.71	4.0	3.9	2.8	1%
O=C(/C=C/c1cccs1)NCc1ccccc1	0.4	-3	0.66	-0.2	4.2	-0.9	-6%
CN([C@@H](C(=O)OC(C)(C)C)c1ccccc1)S(=O)(=O)c1cccc(S(=O)(=O)N(C)[C@@H](C(=O)OC(C)(C)C)c2ccccc2)c1	0.1	-5	/	0.0	-0.2	-4.4	/
Cc1cc(O)c2c(c1)CC1C3CCC4CC(=O)CCC4(C)C3CC(=O)C21C (stereo unspecified)	/	-2	0.7	/	4.4	-1.7	8%
CC(=O)c1cccc(NC(=O)CCNS(=O)(=O)c2cccc3nonc23)c1	0.6	-8	0.68	-5.2	1.6	2.9	-6%

The list goes on (two carried over from the part before).
SMILES	A1 inh	B2AR ag	Ecoli growth	LANA-H2A inh	UCH37 inh	HNF4A DNA FP	Vif A3G
Cc1cc(O)c2c(c1)CC1C3CCC4CC(=O)CCC4(C)C3CC(=O)C21C (stereo unspecified)	/	-2	0.7	/	4.4	-1.7	8%
CC(=O)c1cccc(NC(=O)CCNS(=O)(=O)c2cccc3nonc23)c1	0.6	-8	0.68	-5.2	1.6	2.9	-6%
Cc1ccc(Cl)cc1-n1ncc2c(NNC(=O)c3ccco3)ncnc21	0.2	-4	0.7	6.5	3.6	-1.1	8%
Cc1noc(C)c1-c1nnc(-c2ccc(OC(F)(F)F)cc2)o1	-2.7	-9	0.7	1.8	1.1	-1.4	-10%
COc1cccc(OCCOc2ccc(/C=C3/SC(=S)NC3=O)cc2)c1	-0.5	14	0.69	-6.0	6.7	11	/
CNc1ccc(S(=O)(=O)NCC(=O)OC(C)C(=O)N(C)Cc2ccccc2)cc1[N+](=O)[O-] (stereo unspecified)	0.0	-4	0.67	/	5.2	-14	5%
COCCn1c(C)cc(C(=O)CSc2nc3nc(C)cc(C)n3n2)c1C	0.2	-8	0.71	1.1	6.2	1.2	?
CC1CCCN(S(=O)(=O)c2ccc(-c3ccc(=O)[nH]n3)o2)C1 (stereo unspecified)	-0.2	-1	0.71	6.0	-6.2	0.4	/
COc1cccc(C(=O)NC(=S)Nc2ccc(N3CCCC3)cc2)c1	-1.0	5	0.78	-0.4	5.7	2.1	6%
Nc1nc(Cn2nnc(-c3ccccc3F)n2)nc(N2CCOCC2)n1	-0.1	52*	0.72	3.9	-0.2	-1.2	-6%
Cc1cc(Nc2ccc3c(c2)OCCO3)c2cc(Cl)ccc2n1	-0.1	8	0.66	1.1	1.5	4.5	10%
CC1=NN(c2ccc(C)c(C)c2)C(=O)/C1=C/c1ccc2c(c1)n(C)c(=O)n2C	1.0	21	0.71	-0.3	0.6	6.3	/
CCN(CC)CCN(Cc1cc2ccc(C)cc2[nH]c1=O)C(=O)NC1CCCCC1	?	-15	0.71	0.8	-3.7	5.1	7%
COc1ccc(Cl)cc1NC(=O)CN(C)C(=O)c1cc2c(s1)CCC(C)C2 (stereo unspecified)	0.1	2	0.71	-5.8	0.3	-1.8	0%
O=C(Nc1ccc(Cl)c(Cl)c1)Nc1nnc(-c2ccncc2)s1	0.5	7	0.62	-0.1	-1.2	-66	/
O=C(O)c1ccc(N/N=C/C=C/c2ccccc2)cc1	-13	-2	/	2.0	/	-1.3	14%
COc1cccc(CCC(=O)N(C)C2CCCN(Cc3ccccc3F)C2)c1 (stereo unspecified)	-1.4	12	0.66	0.2	0.7	0.1	/
CCOC(CCn1c(SCC(=O)Nc2cc(C)on2)nc2ccccc2c1=O)OCC	0.2	-5	0.71	8.9	1.5	-2.6	-4%
CCCCOC(=O)c1cc(=O)[nH]c(=O)[nH]1	0.3	-4	0.65	5.6	2.0	3.1	0%
CCOc1ncccc1C(=O)NCCN1C(=O)S/C(=C/c2cccs2)C1=O	0.2	3	0.7	-1.8	5.7	0.6	17%
CSc1nc(-c2ccccc2)nc(N2CCOCC2)c1C(C)=O	0.3	-3	0.64	2.0	2.0	-1.3	/
COC(=O)c1cn(C(=O)c2cccs2)c2ccccc12	0.2	-2	0.73	2.4	3.1	4.1	1%

Full records, looked up by structure. Order of screens: A1 inh, B2AR ag, Ecoli growth, LANA-H2A inh, UCH37 inh, HNF4A DNA FP, Vif A3G
Shown for CCOc1ccccc1C(=O)NCc1ccco1 = 0.4, 3, 0.78, 6.7, 0.6, -2.1, 20%
Shown for CNC(=O)CSc1nc2[nH]ncc2c(=O)[nH]1 = 0.7, 0, 0.72, 4.3, 1.7, -1.2, /
Shown for CCC(=O)NC(=S)Nc1cccc(NC(=O)c2ccccc2Cl)c1 = 0.2, -15, 0.77, -1.6, 2.0, 2.9, 6%
Shown for Nc1nc(Cn2nnc(-c3ccccc3F)n2)nc(N2CCOCC2)n1 = -0.1, 52*, 0.72, 3.9, -0.2, -1.2, -6%
Shown for CCOC(=O)N1CCC(NC(=O)CCC(=O)N2CCOc3ccccc32)CC1 = 0.0, -4, 0.7, 8.1, -0.3, -1.0, -1%
